Assay outcomes from PubChem.
INS promoter inh: inhibitors of insulin promoter-driven GFP, primary screen, imaging, TRM-6 cells (human fetal islet line), eGFP reporter, cell count. inhibition, % at 2 µM. actives 0.9% (n = 130,000). reporter expression induced with tamoxifen. AID 1273, 2008;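 active = inhibition above the mean plus 3 SD, with well images judged a real hit on visual review, cut at about 60% in these data, passing the limit was not always enough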
HSV replic up: enhancers of HSV replication in host cells, fold increase, host cell viability; HSV replication augmentation in cells; actives 0.005% (n = 220,000); maximum fold increase;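 active = peak rise of 1.5-fold or more in the series; tested in PC3 cells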;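 also: first round at 10 µM; read as green reporter fluorescence; hits show the peak of a series up to 25 µM; 1 = signal of infected wells without compound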
PKD1 inh: inhibitors of human PKD1 kinase, biochemical, fluorescence polarization; inhibition, %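 (about 10 µM by stock and volumes)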; PKD1 kinase fluorescence polarization assay; actives 0.056% (n = 200,000); Serine/threonine-protein kinase D1 (Homo sapiens), Q15139;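 active = inhibition of 50% or more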;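 also: controls were vehicle for no effect and a reference inhibitor for full effect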
GALR2 ag: GALR2 receptor agonists, primary screen, cell-based. Galanin receptor type 2 (Homo sapiens), O43603. GALR2-expressing cells, agonist activation read-out. activation, %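 (tested at 5 µM)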. actives 0.48% (n = 140,000). AID 803, 2007;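 active = above mean plus 3 SD of all compounds, about 5% in these data, not always enough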;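 also: 0% = vehicle buffer wells and 100% = reference agonist at full effect; tested in CHO reporter cells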
Target sequence (O43603 whole entry, looked up): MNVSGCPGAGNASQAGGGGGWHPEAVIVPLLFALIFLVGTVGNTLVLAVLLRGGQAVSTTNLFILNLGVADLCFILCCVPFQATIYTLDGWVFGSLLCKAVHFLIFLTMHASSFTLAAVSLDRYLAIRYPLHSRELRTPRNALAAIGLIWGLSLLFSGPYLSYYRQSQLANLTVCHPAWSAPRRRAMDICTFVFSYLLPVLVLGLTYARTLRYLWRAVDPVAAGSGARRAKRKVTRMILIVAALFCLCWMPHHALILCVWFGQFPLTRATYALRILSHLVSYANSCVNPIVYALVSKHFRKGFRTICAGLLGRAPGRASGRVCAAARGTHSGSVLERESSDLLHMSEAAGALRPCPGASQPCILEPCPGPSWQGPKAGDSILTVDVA
RGS16-Gao HTS: modulators of RGS16 binding to Galphao, primary screen, biochemical, human proteins, multiplexed bead flow cytometry; Regulator of G-protein signaling 16 (Homo sapiens) + Guanine nucleotide-binding protein …; actives 0.38% (n = 220,000); bead-based flow cytometry RGS16-Galphao binding, fluorescence; actives lie on both sides; AID 1441, 2008; binding response (% of control), % at 10 µM;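 active = below 25% or above 175%, edge rows of some plates excepted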;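 also: Galphao activated by GDP with aluminum fluoride before binding; 100% = wells without compound and 0% = beads without RGS; some results beyond the cut were filed as inactive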
Target sequence (O15492 whole entry, looked up): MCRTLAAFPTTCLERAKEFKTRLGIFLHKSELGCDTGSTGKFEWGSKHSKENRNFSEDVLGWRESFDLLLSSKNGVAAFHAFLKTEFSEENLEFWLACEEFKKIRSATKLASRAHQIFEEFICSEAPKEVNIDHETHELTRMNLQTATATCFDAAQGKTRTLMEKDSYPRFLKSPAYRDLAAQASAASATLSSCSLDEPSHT
Target sequence (P09471 whole entry, looked up): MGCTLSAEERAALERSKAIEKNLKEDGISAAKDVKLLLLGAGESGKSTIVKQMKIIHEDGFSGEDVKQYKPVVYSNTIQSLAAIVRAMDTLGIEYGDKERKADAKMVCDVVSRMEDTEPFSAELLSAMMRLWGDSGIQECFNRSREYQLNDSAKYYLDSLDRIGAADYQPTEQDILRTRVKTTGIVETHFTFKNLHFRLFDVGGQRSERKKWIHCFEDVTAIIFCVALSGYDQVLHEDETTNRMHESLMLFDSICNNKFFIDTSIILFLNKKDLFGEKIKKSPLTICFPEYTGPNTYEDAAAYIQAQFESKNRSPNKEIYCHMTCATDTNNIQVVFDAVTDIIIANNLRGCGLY
INS promoter inh cell count: recorded beside INS promoter inh, whose call it bears; normalized cell count, %; measured here: cell count, toxicity; reference of the scale not given here;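 cells exposed to compound for 48 h; stained nuclei by imaging scaled within each plate; lower means fewer cells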
HSV replic up primary fold: further read-out of HSV replic up, marked with its call; fold increase; compound at 10 µM; measured here: primary screen fold increase 10 uM; tested in PC3 cells;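 GFP signal in the first replicate; 1 = infected wells without compound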
Numbers without * were called inactive; i = inactive; x = not tested or not shown.

# | structure | INS promoter inh | INS promoter inh cell count | HSV replic up | HSV replic up primary fold | PKD1 inh | GALR2 ag | RGS16-Gao HTS
1 | O=S(=O)(NCC1CCCO1)c1ccc(-c2ccc(S(=O)(=O)NCC3CCCO3)cc2)cc1 (configuration not stated) | 0 | 91 | i | 0.92 | -6 | x | 104
2 | Cc1ccc(S(=O)(=O)N(CC(=O)N2CCN(c3ccccc3F)CC2)C2CCCCC2)cc1 | -38 | 232 | i | 0.86 | 4 | -0.9 | 103
3 | CSc1nc(C)cc(Oc2ccc(OCCOc3ccccc3)nn2)n1 | -58 | 135 | i | 0.8 | -12 | -0.8 | 106
4 | CN1CCCC(OC(=O)/C(C#N)=C/c2ccccc2)C1 (configuration not stated) | x | x | i | 0.95 | 5 | x | 96
5 | Cc1cc(C)cc(OCC(=O)Nc2nc3ccc([N+](=O)[O-])cc3s2)c1 | 4 | 78 | i | 0.95 | -9 | -2.9 | 101
6 | Cc1cc(-c2ccc(Cl)cc2)oc(=O)c1NC(=O)c1ccccc1 | 5 | 96 | i | 0.9 | 4 | -0.2 | 104
7 | COc1cc2c(cc1NC(=O)c1ccc(C)c([N+](=O)[O-])c1)oc1ccccc12 | 15 | 153 | i | 0.88 | -4 | -2.0 | 101
8 | Cc1occc1-c1nnc(SCC(=O)Nc2nccs2)n1Cc1ccco1 | x | x | i | 1 | 6 | -0.3 | 97
9 | NC(=O)c1cc2ccccc2o/c1=N\NC(=O)c1ccncc1 | 17 | 129 | i | 1 | 1 | x | 103
10 | COC(=O)CSc1cc(SCC(=O)OC)c(C#N)c(SCC(=O)OC)c1 | x | x | i | 0.88 | -5 | -1.5 | 96
11 | COc1ccc(CCNC(=O)Cn2nnc(-c3ccc(OC)c(OC)c3)n2)cc1OC | -17 | 86 | i | 1 | -1 | x | 106
12 | CC1=C(/C=N/Nc2ccc([N+](=O)[O-])cc2[N+](=O)[O-])C(C)(C)CCC1 | -19 | 103 | i | 0.89 | -1 | -1.3 | 121
13 | COc1cc(C(=O)OCC(=O)NCc2ccco2)cc(OC)c1OC | x | x | i | 0.86 | -5 | -2.6 | 93
14 | Oc1ccc(Nc2nc(-c3ccc(O)cc3)cs2)cc1 | 25 | 79 | i | 0.79 | -2 | -2.0 | 90
15 | CCOc1ncccc1C(=O)OCC(=O)Nc1ccc(C(N)=O)cc1 | x | x | i | 1 | x | x | 96
16 | C=CCn1c(SC(C)C(=O)NCc2ccc3c(c2)OCO3)nc2scc(-c3ccccc3)c2c1=O (configuration not stated) | -21 | 154 | i | 0.87 | 2 | -2.8 | 90
17 | COc1ccccc1C(=O)Nc1ccc(S(=O)(=O)N2CCCC2)cc1 | 38 | 147 | i | 1.1 | 2 | -1.5 | 9
18 | COc1ccc(C(=O)Nc2cc(Cl)cc(Cl)c2)c(OC)n1 | x | x | i | 0.97 | 10 | -3.7 | 99
19 | CN(C)S(=O)(=O)Nc1ccc(Oc2ccccc2)cc1 | -136 | 117 | i | 1 | -18 | -1.2 | 101
20 | CC1Cc2ccccc2N1S(=O)(=O)c1ccc2c(c1)n(C)c(=O)c(=O)n2C (configuration not stated) | -60 | 151 | i | 0.83 | -2 | -1.4 | 100
21 | Cc1cc(C)n(/N=C/c2ccc(C(C)C)cc2)c(=O)c1C#N | -64 | 64 | i | 0.88 | -6 | 0.1 | 101
22 | Cc1ccc(NC(=O)CNCC2CCCCC2)cc1S(=O)(=O)N(C)C | x | x | i | 0.82 | x | x | 102
23 | COc1ccc(Cl)cc1NC(=O)CN(C)CC(=O)NC(C)c1ccccc1 (configuration not stated) | x | x | i | 0.98 | -3 | x | 99
24 | CCOc1ccc(N2CC(C(=O)Nc3c(C)n(C)n(-c4ccccc4)c3=O)CC2=O)cc1 (configuration not stated) | 13 | 128 | i | 0.92 | -5 | x | 102
25 | COCCCn1c(=O)cc(C)[nH]c1=S | x | x | i | 0.96 | x | x | 93
26 | N#CCc1c(C#N)c(N)nc(N2CCCC(O)C2)c1C#N (configuration not stated) | -79 | 147 | i | 0.96 | 1 | x | 101
27 | O=C(NCc1ccncc1)c1ccc(Br)o1 | 33 | 109 | i | 1 | 10 | -3.3 | 74
28 | CCOC(=O)C1CC(=O)c2cc(OC)c(OC)cc2C1 (configuration not stated) | x | x | i | 0.95 | x | x | 98
29 | CCOC(=O)CN(C(=O)COc1nc(C)cc(C)c1C#N)c1ccc(F)cc1 | x | x | i | 1.2 | x | x | 99
30 | CCN1CCN(C(=O)CN(C)S(=O)(=O)c2ccc(OC)c(C)c2)CC1 | 0 | 56 | i | 0.92 | -2 | -2.1 | 102
31 | CN(CCC#N)C(=S)Nc1ccc(F)cc1 | x | x | i | 1.2 | x | x | 101
32 | C=CCn1c(=S)[nH]c2sc3c(c2c1=O)CCC3 | 48 | 133 | i | 0.7 | -14 | -2.0 | 102
33 | CCn1c(NCc2cc(Cl)ccc2O)nc2ccccc21 | x | x | i | 0.93 | x | x | 103
34 | O=C(NCc1cccnc1)c1cccnc1-c1nc2ccccc2s1 | -55 | 121 | i | 0.85 | 1 | -0.9 | 91
35 | O=C(CCCNc1ccccc1)N/N=C/c1cccs1 | -47 | 140 | i | 0.97 | 3 | x | 123
36 | CCC(=O)c1ccc(-c2ccccc2)cc1 | x | x | i | 1.2 | 1 | -1.1 | 49
37 | O=C(Nc1ccc(Cl)cc1)OCCn1nnnc1C(c1ccccc1Cl)N1CCOCC1 (configuration not stated) | -3 | 79 | i | 0.92 | -1 | -1.2 | 101
38 | O=C(Nc1ccccc1)c1ccccc1NS(=O)(=O)c1ccc(Cl)s1 | -21 | 71 | i | 0.71 | 5 | 0.8 | 84
39 | C=CCn1c(SCc2c(F)cccc2Cl)nnc1-c1ccco1 | -18 | 114 | i | 0.86 | 5 | -1.4 | 110
40 | CC1(C)CC(=O)C2=C(C1)N(c1ccc(Cl)cc1)C(=O)C2(O)C(F)(F)F (configuration not stated) | 19 | 87 | i | 0.96 | -5 | -0.5 | 111
41 | CCCCOC(=O)C1CN(c2ccccc2)N=C1C(C)=O (configuration not stated) | x | x | i | 1 | 0 | x | 100
42 | CC(C)N(C)CCOC(=O)/C=C/c1ccccc1 | -39 | 73 | i | 1.2 | -12 | 1.1 | 78
43 | Cc1noc(C)c1COc1ccc(C(=O)OCC(=O)NC2CCCCC2C)cc1 (configuration not stated) | 6 | 156 | i | 0.95 | -6 | -1.4 | 83
44 | COc1ccc(/C=C(/NC(=O)c2ccc(OC)c(OC)c2)C(=O)NCCc2c[nH]c3ccccc23)cc1 | -20 | 72 | i | 0.97 | 6 | -1.0 | 117
45 | O=C(COC(=O)c1ccccc1NS(=O)(=O)c1cc([N+](=O)[O-])ccc1Cl)c1ccccc1 | -76 | 111 | i | 0.94 | -4 | x | 106
46 | CC1CCN(C(=O)CSc2nnc(-c3ccc(S(=O)(=O)N4CCOCC4)cc3)n2C)CC1 | -19 | 42 | i | 0.79 | 4 | -1.3 | 99
47 | Cc1cccc(CCNC(=O)CCc2c(C)nc3ncnn3c2C)c1 | 3 | 49 | i | 0.78 | -3 | -3.0 | 107
48 | Cc1ccc(/C=C/C(=O)N2CCc3ccccc32)o1 | 43 | 105 | i | 0.91 | -3 | -0.4 | 88
49 | CCOC(=O)N1CCC(NC(=O)C2CCN(S(=O)(=O)c3cccc4cccnc34)CC2)CC1 | 29 | 112 | i | 0.83 | -7 | -0.7 | 92
50 | CCOc1ccc(-n2cc(C(=O)Nc3cccc(Cl)c3)c3cc(OC)c(OC)cc3c2=O)cc1 | 19 | 79 | i | 0.95 | -1 | -0.2 | 97
51 | CCCCS(=O)CC(CS(=O)CCCC)OC(=O)c1ccc(C)cc1 (configuration not stated) | 24 | 51 | i | 1 | -6 | 0.4 | 101
52 | CCCOc1ccc(C2C(=O)N(C3CCCCC3)CC(=O)N2CCC)cc1OC (configuration not stated) | x | x | i | 0.87 | -11 | -1.6 | 109
53 | CC1=Nc2cccc3cccc(c23)N1C | 50 | 55 | i | 0.87 | -10 | -1.5 | 101
54 | CCc1ccc(OCC(=O)NC(=S)Nc2ccc(C(=O)O)cc2)cc1 | x | x | i | 1.2 | x | x | 94
55 | CCCNC(=O)CCNC(=O)c1ccc(C(C)(C)C)cc1 | x | x | i | 0.89 | -13 | -1.4 | 105
56 | O=C(NC12CC3CC(CC(C3)C1)C2)N1CCN(c2ncccn2)CC1 | 11 | 127 | i | 1 | -8 | x | 101
57 | O=C(CCCCCN1C(=O)c2cccc3cccc(c23)C1=O)N1CCOCC1 | 26 | 89 | i | 1.1 | -8 | 1.5 | 83
58 | FC(F)Oc1ccc(NC(=S)N2CCc3ccccc32)cc1 | -21 | 67 | i | 0.95 | 3 | x | 87
59 | Clc1ccc(SCc2cc(-c3ccc(Cl)cc3)on2)cc1 | -13 | 63 | i | 0.89 | 1 | 0.3 | 107
60 | c1ccc(CSc2ncn(-c3ccccc3)n2)cc1 | -16 | 102 | i | 1 | 3 | -2.4 | 101

Entries above that contain a Cl atom (11):
# | structure | INS promoter inh | INS promoter inh cell count | HSV replic up | HSV replic up primary fold | PKD1 inh | GALR2 ag | RGS16-Gao HTS
6 | Cc1cc(-c2ccc(Cl)cc2)oc(=O)c1NC(=O)c1ccccc1 | 5 | 96 | i | 0.9 | 4 | -0.2 | 104
18 | COc1ccc(C(=O)Nc2cc(Cl)cc(Cl)c2)c(OC)n1 | x | x | i | 0.97 | 10 | -3.7 | 99
23 | COc1ccc(Cl)cc1NC(=O)CN(C)CC(=O)NC(C)c1ccccc1 (configuration not stated) | x | x | i | 0.98 | -3 | x | 99
33 | CCn1c(NCc2cc(Cl)ccc2O)nc2ccccc21 | x | x | i | 0.93 | x | x | 103
37 | O=C(Nc1ccc(Cl)cc1)OCCn1nnnc1C(c1ccccc1Cl)N1CCOCC1 (configuration not stated) | -3 | 79 | i | 0.92 | -1 | -1.2 | 101
38 | O=C(Nc1ccccc1)c1ccccc1NS(=O)(=O)c1ccc(Cl)s1 | -21 | 71 | i | 0.71 | 5 | 0.8 | 84
39 | C=CCn1c(SCc2c(F)cccc2Cl)nnc1-c1ccco1 | -18 | 114 | i | 0.86 | 5 | -1.4 | 110
40 | CC1(C)CC(=O)C2=C(C1)N(c1ccc(Cl)cc1)C(=O)C2(O)C(F)(F)F (configuration not stated) | 19 | 87 | i | 0.96 | -5 | -0.5 | 111
45 | O=C(COC(=O)c1ccccc1NS(=O)(=O)c1cc([N+](=O)[O-])ccc1Cl)c1ccccc1 | -76 | 111 | i | 0.94 | -4 | x | 106
50 | CCOc1ccc(-n2cc(C(=O)Nc3cccc(Cl)c3)c3cc(OC)c(OC)cc3c2=O)cc1 | 19 | 79 | i | 0.95 | -1 | -0.2 | 97
59 | Clc1ccc(SCc2cc(-c3ccc(Cl)cc3)on2)cc1 | -13 | 63 | i | 0.89 | 1 | 0.3 | 107

Going on with the list.
# | structure | INS promoter inh | INS promoter inh cell count | HSV replic up | HSV replic up primary fold | PKD1 inh | GALR2 ag | RGS16-Gao HTS
61 | COc1cc(C(=O)Nc2ccc(S(=O)(=O)NC(C)(C)C)cc2)cc(OC)c1OC | -23 | 82 | i | 1.3 | 3 | -2.8 | 115
62 | CCN(CC)CCN1CNC(=S)N(c2ccccc2OC)C1 | x | x | i | 0.87 | x | x | 99
63 | COc1ccc(O[C@H]2C=C[C@@H](c3ccccc3)O[C@@H]2CO/N=C(\C)CCN2CCCCc3nc(C)c(C)cc32)cc1 | -105 | 78 | x | x | -5 | -1.6 | 182
64 | O=C(COc1nncc2ccccc12)NCC(F)(F)F | 53 | 101 | i | 0.97 | -2 | x | 74
65 | COc1ccccc1OCc1nc(C#N)c(NCc2ccco2)o1 | x | x | i | 0.98 | 12 | -1.7 | 101
66 | COC(=O)c1cccnc1SCc1ccccc1 | -72 | 127 | i | 0.97 | 4 | -1.3 | 113
67 | Cc1cc(C)n(-c2ccc(C(=O)OCC(=O)N(CC(C)C)C3CCS(=O)(=O)C3)cc2)n1 (configuration not stated) | 14 | 74 | i | 0.81 | 3 | -4.0 | 103
68 | CN(C(=O)Nc1ccc(Cl)cc1)c1c2c(nn1C)CCCC2 | -26 | 77 | i | 1 | -9 | 0.4 | 101
69 | CCC1(C)SC(NC(C)=O)=NN1C(C)=O (configuration not stated) | 9 | 82 | i | 1.1 | 16 | x | 96
70 | COc1cccc(C(=O)NC2CCN(CC(=O)Nc3c(C)cc(C)cc3C)CC2)c1 | 20 | 114 | i | 1 | -2 | x | 115

This is a random part of the collection (roughly 1.3% active in at least one column).
